GALR2 ag: GALR2 receptor agonists, primary screen, cell-based | AID 803, 2007 | GALR2-expressing cells, agonist activation read-out | actives 0.48% (n = 140,000) | activation, %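 (tested at 5 µM)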;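 active = above mean plus 3 SD of all compounds, about 5% in these data, not always enough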;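 also: 0% = vehicle buffer wells and 100% = reference agonist at full effect; tested in CHO reporter cells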
PKD1 kinase inh: inhibitors of human PKD1 kinase, biochemical, fluorescence polarization. Serine/threonine-protein kinase D1 (Homo sapiens), Q15139. PKD1 kinase fluorescence polarization assay. inhibition, %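 (about 10 µM by stock and volumes)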. actives 0.056% (n = 200,000). AID 797, 2007;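 active = inhibition of 50% or more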;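 also: controls were vehicle for no effect and a reference inhibitor for full effect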
Target sequence (Q15139 whole entry, looked up): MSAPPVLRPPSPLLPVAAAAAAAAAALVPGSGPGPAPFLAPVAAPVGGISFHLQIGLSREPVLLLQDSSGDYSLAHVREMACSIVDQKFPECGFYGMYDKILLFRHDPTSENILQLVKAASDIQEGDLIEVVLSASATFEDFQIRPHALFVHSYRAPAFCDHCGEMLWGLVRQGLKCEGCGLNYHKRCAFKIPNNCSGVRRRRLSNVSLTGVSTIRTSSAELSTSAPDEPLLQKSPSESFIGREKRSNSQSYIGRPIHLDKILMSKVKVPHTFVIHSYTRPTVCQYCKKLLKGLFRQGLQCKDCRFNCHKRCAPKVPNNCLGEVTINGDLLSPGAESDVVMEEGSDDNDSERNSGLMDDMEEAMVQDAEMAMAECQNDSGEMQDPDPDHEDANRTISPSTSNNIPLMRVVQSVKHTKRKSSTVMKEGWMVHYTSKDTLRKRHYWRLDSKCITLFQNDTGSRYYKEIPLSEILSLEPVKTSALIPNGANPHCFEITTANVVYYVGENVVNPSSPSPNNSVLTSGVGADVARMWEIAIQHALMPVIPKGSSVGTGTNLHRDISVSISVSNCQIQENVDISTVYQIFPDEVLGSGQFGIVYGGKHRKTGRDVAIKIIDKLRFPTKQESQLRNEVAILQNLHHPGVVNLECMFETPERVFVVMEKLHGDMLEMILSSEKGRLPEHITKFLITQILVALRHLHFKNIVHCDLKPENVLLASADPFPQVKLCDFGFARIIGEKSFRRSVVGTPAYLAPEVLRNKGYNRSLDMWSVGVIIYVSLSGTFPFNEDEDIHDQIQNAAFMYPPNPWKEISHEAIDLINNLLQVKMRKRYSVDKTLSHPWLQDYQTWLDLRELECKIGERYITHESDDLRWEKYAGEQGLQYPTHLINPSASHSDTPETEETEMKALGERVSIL
RGS16-Gao HTS: modulators of RGS16 binding to Galphao, primary screen, biochemical, human proteins, multiplexed bead flow cytometry. bead-based flow cytometry RGS16-Galphao binding, fluorescence; actives lie on both sides. binding response (% of control), % at 10 µM. actives 0.38% (n = 220,000);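 active = below 25% or above 175%, edge rows of some plates excepted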;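 also: Galphao activated by GDP with aluminum fluoride before binding; 100% = wells without compound and 0% = beads without RGS; some results beyond the cut were filed as inactive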
Insulin prom inh: inhibitors of insulin promoter-driven GFP, primary screen, imaging, TRM-6 cells (human fetal islet line), eGFP reporter, cell count; reporter expression induced with tamoxifen; inhibition, % at 2 µM; actives 0.9% (n = 130,000);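 active = inhibition above the mean plus 3 SD, with well images judged a real hit on visual review, cut at about 60% in these data, passing the limit was not always enough; inconclusive = inhibition over the cutoff but images rejected on review; inactive = inhibition not above the cutoff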
HSV augment: enhancers of HSV replication in host cells, fold increase, host cell viability. actives 0.005% (n = 220,000). maximum fold increase. AID 1956, 2009. HSV replication augmentation in cells;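 active = peak rise of 1.5-fold or more in the series; inconclusive = self-fluorescent or not available for retest; tested in PC3 cells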;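 also: first round at 10 µM; read as green reporter fluorescence; hits show the peak of a series up to 25 µM; 1 = signal of infected wells without compound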
Insulin prom inh cell count: further read-out of Insulin prom inh, marked with its call; normalized cell count, %; measured here: cell count, toxicity; reference of the scale not given here;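 cells exposed to compound for 48 h; stained nuclei by imaging scaled within each plate; lower means fewer cells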
HSV augment primary fold: recorded beside HSV augment, whose call it bears; fold increase; compound at 10 µM; measured here: primary screen fold increase 10 uM; tested in PC3 cells;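 GFP signal in the first replicate; 1 = infected wells without compound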
Starred values were filed as active, the others as inactive; i = inactive; ? = inconclusive; . = not tested or not shown; & = joins results of further samples.

SMILES	GALR2 ag	PKD1 kinase inh	RGS16-Gao HTS	Insulin prom inh	Insulin prom inh cell count	HSV augment	HSV augment primary fold
NC(=O)C1CCN(c2nc(C3CC3)nc3c2nnn3Cc2ccccc2)CC1	-0.4	-3	85	.	.	i	1.1
Nc1c(C(=O)Nc2ccc(F)cc2)nnn1-c1cccc(C(F)(F)F)c1	.	-4	94	-7	127	i	0.93
Cc1ccc(C)c(NCC(=O)NNC(=S)Nc2ccccc2)c1	.	-2	96	.	.	i	1
CCCSc1ccc(-c2nn(-c3ccccc3)cc2/C=C(/C#N)C(=O)N2CCOCC2)cc1	-0.6	-3	101	.	.	i	0.86
CC(=O)Nc1ncc2c(n1)CC(c1ccco1)CC2=O (centres undefined)	-1.2	-12	99	18	69	i	0.96
Fc1ccc2c(c1)C(c1ccncc1)=NNC(c1ccccc1)=N2	0.1	3	100	.	.	i	0.95
CCOC(=O)c1ccccc1NC(=O)CSc1ncc(C(=O)OCC)c(N)n1	-1.4	-5	102	6	156	i	1
COCCn1nnnc1C(c1ccc(Cl)cc1)N1CCSCC1 (centres undefined)	-2.0	4	106	-58	81	.	.
O=C(Nc1ncccn1)C12CC3CC(CC(C3)C1)C2	.	.	80	.	.	i	0.91
O=C(NCc1cccs1)c1csc2ccccc12	-0.7	-6	104	1	69	i	0.94
O=c1cc(-c2ccc(Cl)cc2)[nH][nH]1	-1.9	-6	93	-26	142	i	0.91
COc1ccc(C)cc1NC(=O)C1COc2ccccc2O1 (centres undefined)	.	0	106	-50	125	i	0.85

Two of these compounds, reformatted.
SMILES,GALR2 ag,PKD1 kinase inh,RGS16-Gao HTS,Insulin prom inh,Insulin prom inh cell count,HSV augment,HSV augment primary fold
COCCn1nnnc1C(c1ccc(Cl)cc1)N1CCSCC1 (centres undefined),-2.0,4,106,-58,81,.,.
O=C(Nc1ncccn1)C12CC3CC(CC(C3)C1)C2,.,.,80,.,.,i,0.91

(listing goes on)
SMILES	GALR2 ag	PKD1 kinase inh	RGS16-Gao HTS	Insulin prom inh	Insulin prom inh cell count	HSV augment	HSV augment primary fold
CCOc1ccc(NC(=O)c2ccccc2OCC(=O)c2ccc(C)cc2)cc1	-1.2	-6	102	-46	145	i	0.62
S=c1[nH]nc(-c2ccc(Br)o2)n1Cc1ccccc1	-1.5	-1	95	-10	127	i	0.99
C=C(C)[C@@H]1CC=C(CN2CCC(N3CCC(C(=O)N4CCCC4)CC3)CC2)CC1	.	-13	98	.	.	i	1.1
CCc1nnc(NC(=O)C2CCCCC2)s1	-0.7	1	77	14	180	i	0.73
CCOC(=O)C(NC(=O)CC)(Nc1cc(C)on1)C(F)(F)F (centres undefined)	-1.1	9	99	.	.	i	0.91
CC(=O)OCC1OC(Sc2cccc3cccnc23)C(OC(C)=O)C(OC(C)=O)C1OC(C)=O (centres undefined)	-1.4	-2	99	.	.	i	0.92
CN(CC(=O)Nn1cnnc1)S(=O)(=O)c1ccc(Br)cc1	-2.2	-6	104	3	168	i	0.99
COc1ccc(OC)c(CN2C(=O)c3ccccc3C2C(=O)NCc2cccnc2)c1 (centres undefined)	-3.0	5	102	40	30	i	0.99
CCOCCCn1c(SCC(=O)NCc2ccco2)nc2c(sc3ccccc32)c1=O	-0.7	-3	95	53	66	i	0.82
N#CCNc1ccc([N+](=O)[O-])cc1C#N	.	.	97	.	.	i	0.99
Nc1cc(-c2ccccc2)ccc1O	-0.9	-6	99&96	0	100	i	0.77&1.1
O=C(NC1CC1)c1ccc(-c2ccccc2)cc1	.	-8	102	.	.	i	0.78
S=C(NCC1CCCO1)N1CCN(c2nc(-c3ccc(Cl)cc3)cs2)CC1 (centres undefined)	.	0	111	38	28	i	0.91
NC(=O)C1(N2CCCCC2)CCN(C(=O)NC2CCCCC2)CC1	-1.8	1	103	.	.	i	0.97
CCOC(=O)NC(NCC(O)c1ccccc1)(C(F)(F)F)C(F)(F)F (centres undefined)	-1.9	-8	97	54	102	i	0.8
Cc1ccc(C(=O)C2COC(=O)C2)cc1 (centres undefined)	-1.8	1	98	-38	140	i	1.2
CCCCn1c(=O)c(CCC(=O)OCC(=O)NC(=O)NCCC(C)C)nc2ccccc21	.	-2	101	0	91	i	0.96
O=C(NC1CCCc2ccccc21)c1cncc(Br)c1 (centres undefined)	-1.7	4	166	-17	96	i	0.97
O=c1c(/C=C(\O)c2ccc(F)cc2)nc2ccccc2n1-c1ccccc1	-2.4	2	87	-128	79	?	.
CN(C)S(=O)(=O)N1CCN(C(=O)c2cccs2)CC1	-2.8	-13	101	-11	112	i	1.1
COC(=O)C(Cc1ccc(O)cc1)NC(=O)C12CC3CC(CC(C3)C1)C2 (centres undefined)	.	1	100	15	62	i	0.77
Cc1nnc(SCC(=O)Nc2sccc2C#N)n1Cc1ccccc1	-2.0	-2	105	38	135	i	0.89
CCCn1c(SCC(=O)NCCc2ccccc2)nnc1-c1ccco1	-2.5	-6	111	-56	72	i	1
O=C(Nc1cccc(NC(=O)c2ncn[nH]2)c1)c1cccc(Cl)c1	.	11	101	23	124	i	0.94
CCCCC(=O)Nc1cccc(NC(=O)c2ccccc2Br)c1	-4.9	-2	107	19	112	i	0.93
CC(=O)NCc1ccc(S(=O)(=O)N/N=C/c2ccc(N(C)C)cc2)cc1	-1.5	-10	112	25	106	i	1.1
CN(C)/C=N/c1nc2nccc(-c3ccc(F)cc3)n2n1	.	-2	103	36	99	i	0.85
O=C(c1c[nH]c(C(=O)C(Cl)(Cl)Cl)c1)c1ccccc1Br	.	3	103	11	134	i	0.86
CCOc1ccc(/C=C2/SC(=O)NC2=S)cc1	-0.3	5	103	40	149	i	1.4
COC(=O)c1cccc(N(C(=O)c2ccco2)C(C(=O)NC2CCCC2)c2ccco2)c1 (centres undefined)	-0.4	-8	77	20	70	i	0.93
Fc1cccc(CSc2nnc3c(n2)[nH]c2ccccc23)c1	.	.	93	.	.	i	1.1
Cc1cc(C)cc(N=Cc2[nH]c3ccc(Br)c(Cl)c3c2O)c1	-1.8	-7	96	-47	67	i	1.2
Cn1c(=O)[nH]c(=O)c2c1nc(NCCCn1ccnc1)n2Cc1cccc(Br)c1	0.0	2	102	39	122	i	0.93
COc1cc(/C=N/Nc2nc(=O)[nH]nc2C)cc(OC)c1O	.	-6	103	-25	47	i	0.66
Nc1nc(-c2ccc3ccccc3c2)c(C2(O)C(=O)Nc3c(Br)cc(F)cc32)s1 (centres undefined)	-2.5	-1	111	-42	101	i	1
Cc1ccc(C)c(N2CCN(C(=S)Nc3ccc4nc(N5CCN(C)CC5)cc(C)c4c3)CC2)c1	.	-3	99	-50	26	i	0.77

Some of the entries above, reformatted:
| molecule | GALR2 ag | PKD1 kinase inh | RGS16-Gao HTS | Insulin prom inh | Insulin prom inh cell count | HSV augment | HSV augment primary fold |
| --- | --- | --- | --- | --- | --- | --- | --- |
| CN(C)/C=N/c1nc2nccc(-c3ccc(F)cc3)n2n1 | . | -2 | 103 | 36 | 99 | i | 0.85 |
| O=C(c1c[nH]c(C(=O)C(Cl)(Cl)Cl)c1)c1ccccc1Br | . | 3 | 103 | 11 | 134 | i | 0.86 |
| CCOc1ccc(/C=C2/SC(=O)NC2=S)cc1 | -0.3 | 5 | 103 | 40 | 149 | i | 1.4 |
| COC(=O)c1cccc(N(C(=O)c2ccco2)C(C(=O)NC2CCCC2)c2ccco2)c1 (centres undefined) | -0.4 | -8 | 77 | 20 | 70 | i | 0.93 |
| Fc1cccc(CSc2nnc3c(n2)[nH]c2ccccc23)c1 | . | . | 93 | . | . | i | 1.1 |

More structures.
SMILES	GALR2 ag	PKD1 kinase inh	RGS16-Gao HTS	Insulin prom inh	Insulin prom inh cell count	HSV augment	HSV augment primary fold
O=C(O)/C=C/C(=O)Nc1ccc(Cc2ccc(NC(=O)/C=C/C(=O)O)cc2)cc1	.	.	100	.	.	i	0.87
Cc1cc(NS(=O)(=O)c2ccc(N3C(=O)C4C5C=CC(C5)C4C3=O)cc2)nc(C)n1 (centres undefined)	-0.6	5	101	.	.	i	1
COc1ccc(OCCSc2ncccn2)cc1	-0.9	-3	106	.	.	i	0.97
COc1cccc(-c2cc(C(=O)NCCCn3ccnc3)c3ccccc3n2)c1	0.0	-4	84	-30	83	i	1
CCCCOC(=O)N1CCOCCOCCOCC1	.	.	105	.	.	i	1.1
Cc1ccc(S(=O)(=O)NCC(=O)OCc2nnc(-c3ccccc3)o2)cc1C	0.0	-4	106	57	47	i	1
COc1ccc(-c2cc(CCCC(=O)NCCc3ccccc3)no2)cc1	.	.	100	.	.	i	0.6
CCOC(=O)c1ccccc1NC(=O)CSc1nnnn1C	-0.6	3	103	25	92	i	0.96
COc1cccc(C(Nc2ccccn2)c2c(NC(=O)c3ccco3)sc(C)c2C)c1 (centres undefined)	-1.8	-9	106	.	.	i	1
CCc1cc[n+](/C(C(=S)Nc2cccc(C)c2)=C(/[O-])c2ccc(C)c([N+](=O)[O-])c2)cc1	-0.1	0	93	.	.	i	1.1
CC(=O)c1n[nH]nc1Nc1nc(C)cc(C)n1	-0.3	-4	113	43	152	i	0.77
O=C(NC1CC1)C1=C[C@@H](C2CC2)C[C@@H](OCc2ccc(CO)cc2)O1	.	.	108	.	.	i	0.87
CC(C)CC(=O)Nc1ccc(-c2nc3ccccc3c(=O)o2)cc1	0.8	-2	86	-41	83	i	1.1
CCN(CC)S(=O)(=O)c1ccc(N2CCOCC2)c(NC(=O)c2cccc(C#N)c2)c1	.	6	108	.	.	i	1
CCCN(CCC)CC(C)(C)NS(=O)(=O)c1ccc(Cl)cc1	.	.	94	.	.	i	1.1
Cc1ccccc1OCC(=O)Nc1cccc(N(C)S(C)(=O)=O)c1	0.1	-4	96	39	49	i	0.98
CCOC(=O)Cc1csc(NC(=O)CSc2nnnn2-c2ccc(F)cc2)n1	0.6	3	91	14	128	i	0.73
Cc1c(C)n(C)c2ccc([N+](=O)[O-])cc12	0.4	10	110	-32	97	i	0.96
Nc1nn(S(=O)(=O)c2ccccc2)cc1-c1cccc([N+](=O)[O-])c1	.	2	93	.	.	i	1.1
Cc1ccc(S(=O)(=O)CCc2nc3ccccc3s2)cc1C	-4.1	-3	107	-17	138	i	1
Cc1ccccc1Cn1ccc(NC(=O)c2onc(C)c2Cl)n1	-1.2	-2	105	-100	125	i	0.9
CC(C)Sc1sc(C(=O)O)c(-c2ccc(Cl)cc2)c1C#N	.	.	95	.	.	i	1
O=C(/C=C/c1ccccc1[N+](=O)[O-])OCC(=O)c1ccccc1	.	1	99	18	140	i	1.3
O=C(COC(=O)CCc1nc2ccccc2s1)NC(=O)NCc1ccco1	.	-3	99	48	70	i	1.1
O=S(=O)(Nc1ccc(N2CCOCC2)cc1)c1ccc(F)cc1	.	-6	101	.	.	i	0.85
CCC(C)Sc1nnc(Cc2cc(=O)[nH]c(=O)[nH]2)n1-c1ccc(OC)cc1 (centres undefined)	-2.2	7	102	.	.	i	0.86
COc1cccc(NC(=O)CN(C)C(=O)c2ccc3ccccc3c2)c1	-0.3	-5	94	-10	177	i	0.9
O=C(Oc1cncc(Cl)c1)c1ccco1	-2.9	-3	100	-7	104	i	0.98
COC(=O)c1c(NC(=O)c2ccc(C)cc2)csc1C	.	.	103	.	.	i	1
CCc1ccc(OCC(=O)NC(NC(=S)Nc2ccc(Cl)cc2)C(Cl)(Cl)Cl)cc1 (centres undefined)	-0.1	-1	88	7	99	i	0.68
CCn1cc(C(=O)N2CCN(c3ccccn3)CC2)c2cc(OC)c(OC)cc2c1=O	-0.1	-2	99	6	101	i	0.95
COc1ccc(C(=O)N(Cc2ccco2)Cc2cc3cc(C)ccc3[nH]c2=O)cc1OC	1.3	0	.	21	84	i	0.91
Cc1ccc(C(=O)N2CCc3ccccc32)cc1NC(=O)c1ccco1	.	-1	100	.	.	i	1
O=C(O)CS(=O)(=O)CC(=O)O	-0.4	-1	115	-6	62	i	1
Cc1ccc(/C=N/NC(=O)Cn2cnc3ccccc32)o1	-2.4	12	91	.	.	i	0.94
CC/C(CC(C)(C)c1ccccc1)=N\O	-2.1	4	100	.	.	i	0.96
Cc1cc2c3ccccc3ncn2n1	.	.	102	.	.	i	0.95
COc1ccc([N+](=O)[O-])cc1NC(=O)/C=C/C(=O)O	-0.4	-11	13*	-50	98	i	0.98
O=C(CSc1nnnn1Cc1ccccc1)NCCc1ccccc1	-3.6	-6	100	0	134	i	1
CCCc1[nH][nH]c(=O)c1C(c1ccc(Br)cc1)C(C#N)C#N (centres undefined)	-0.5	1	79	-24	112	i	1.1
Cc1cccc(CC(Cc2nc3ccccc3[nH]2)c2nc3ccccc3[nH]2)c1 (centres undefined)	9.4	-7	97	-30	71	i	1.1
O=C(CCC(=O)Nc1ccccc1)NNC(=O)COc1ccccc1	-1.8	-5	55	29	93	i	1

Assay outcomes from PubChem BioAssay.

No enrichment for hits (roughly 1.3% active in at least one column).
